Measles inh: inhibitors of measles virus growth in infected cells. infected Vero cells, GFP fluorescence, 64 h; hits give low values. 33,000 compounds, 0.1% hits. z-score (concentration not given with the values);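 active = z-score under -3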;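 note: score is relative to mean and SD of the compound wells of a plate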
Starred values were filed as active, the others as inactive.

| nr | mol | Measles inh |
| --- | --- | --- |
| 1 | Cc1ccc(Cn2c(=O)cc(C(=O)NC3CCCC3)c3ccccc32)cc1 | 0.8 |
| 2 | COc1cc(C(=O)N2CC(=O)Nc3ccc(F)cc3C2c2ccc(F)cc2)cc(OC)c1OC (stereo not drawn) | 0.67 |
| 3 | COC(=O)Oc1ccc2c(=O)c(Oc3ccccc3Cl)coc2c1 | 0.87 |
| 4 | CC(=O)N1CCc2cc(S(=O)(=O)NCC(=O)NCc3ccccc3Cl)ccc21 | 0.94 |
| 5 | O=C(Nc1ccc(Cl)cc1)c1cc(Cl)ccc1NS(=O)(=O)c1ccc(Cl)cc1 | -1.4 |
| 6 | CCc1ccc2nc(N3CCC(C(=O)NCCCN4CCCCC4CC)CC3)sc2c1 (stereo not drawn) | -1.7 |
| 7 | CC(=O)c1cccc(NC(=O)c2cc3nc(-c4ccc(Cl)cc4)cc(C(F)(F)F)n3n2)c1 | -0.25 |
| 8 | CCOC(=O)C1=C(C)N(Cc2ccccc2)C(=O)NC1c1ccccc1F (stereo not drawn) | -0.96 |
| 9 | COc1ccc(Cl)cc1C(=O)Nc1cc(-c2nc3ncccc3o2)ccc1C | 1.8 |
| 10 | COc1ccc(Cn2c(=O)[nH]c3cc(C(=O)O)ccc3c2=O)cc1 | 1.7 |
| 11 | C=CCOC(=O)C1=C(C)NC(=O)NC1c1ccccc1 (stereo not drawn) | 0.39 |
| 12 | CCOC(=O)C1CCN(C(=O)c2sc3ncnc(N4CCCCC4C)c3c2C)CC1 (stereo not drawn) | -0.69 |
| 13 | COc1cc(C=Nc2ccc(N=Cc3ccc(O)c(OC)c3)c([N+](=O)[O-])c2)ccc1O | 0.79 |
| 14 | CC1CCN(c2ccc([N+](=O)[O-])c(NCCOc3ccc(F)cc3)c2)CC1 | 0.26 |
| 15 | Cc1ccc(S(=O)(=O)c2c(C)nn(C(C)(C)C)c2OC(=O)C(C)(C)C)cc1 | 0.33 |
| 16 | COc1cc(-c2n[nH]c(=S)n2-c2ccc(C)cc2C)cc(OC)c1OC | 0.31 |
| 17 | Cc1ccc(CNC(=O)c2cn(C3CCCC3)c(=O)c3c2c2ccccc2n3C)cc1 | -0.31 |
| 18 | Cc1ccc(CNC(=O)c2oc3ccc(S(=O)(=O)N4CCOCC4)cc3c2C)cc1 | -0.44 |
| 19 | CCOC(=O)c1sc2nc(C)n(CC(=O)Nc3ccc(OC)cc3OC)c(=O)c2c1C | -0.78 |
| 20 | CCOC(=O)Cc1nnc(NC(=O)CC)s1 | 0.29 |
| 21 | Cc1cccc(-n2nc3c(c2NC(=O)c2cccc(Br)c2)CS(=O)(=O)C3)c1C | 0.56 |
| 22 | O=C(NC1CCCCC1)c1cc(-c2ccco2)on1 | -0.34 |
| 23 | Cn1c(=O)n(Cc2ccccc2Cl)c2ccccc21 | -0.29 |
| 24 | CCC(=O)NC(Nc1sc2c(c1C#N)CCCC2)(C(F)(F)F)C(F)(F)F | 1.8 |
| 25 | COc1cc(C=Nc2ccc3ccccc3c2)cc(OC)c1OC | 0.71 |
| 26 | CC(C)c1ccc(N(C)C(=O)Cn2ccc3ccccc3c2=O)cc1 | 2.4 |
| 27 | FC(F)(F)c1cccc(-n2cc(-c3ccccc3)c3c(NC4CCCC4)ncnc32)c1 | -0.23 |
| 28 | O=C(c1ccc(S(=O)(=O)Cc2ccccc2Cl)c([N+](=O)[O-])c1)N1CCOCC1 | 0.4 |
| 29 | Cc1ccc(C2NC(=O)c3c(sc4c3CCN(C)C4)N2)c(O)c1 (stereo not drawn) | 1.3 |
| 30 | COc1cccc(-n2c(=O)c3c(n4cnnc24)-c2ccccc2CC32CCCCC2)c1 | -0.33 |
| 31 | CC1=C(C(=O)Nc2ccccc2C)C(c2ccc3c4c(cccc24)CC3)NC(=S)N1 (stereo not drawn) | -0.47 |
| 32 | CC1CC(C)CN(Cc2cn3c(-c4cccc(Br)c4)nnc3s2)C1 (stereo not drawn) | -0.13 |
| 33 | Cc1ccc(S(=O)(=O)c2nc(-c3ccco3)oc2SCC(N)=O)cc1 | 1.8 |
| 34 | CCCCN(C)S(=O)(=O)c1ccc(C(=O)N=c2sc3cccc(Cl)c3n2C)cc1 | -1.8 |
| 35 | COC(=O)c1cc2c(s1)CN(C1CCCCCCC1)C2 | 0.11 |
| 36 | CCOc1ccc(C(=O)Nc2c3c(nn2-c2cccc(Cl)c2)CS(=O)C3)cc1 (stereo not drawn) | 0.01 |
| 37 | O=C(NCC1CCCO1)c1sc(=S)n2c1[nH]c(=O)c1ccccc12 (stereo not drawn) | 0.25 |
| 38 | CC1=CCC2C(=O)N(c3ccccc3OC(=O)c3ccc(Br)cc3)C(=O)C2C1 (stereo not drawn) | 0.71 |
| 39 | COCc1nc2ccccc2n1CCOc1ccccc1C | -3.4* |
| 40 | O=[N+]([O-])c1ccc(COc2ccc(C=Nc3ccc(Br)cc3)cc2)cc1 | -0.19 |
| 41 | N=c1n(CCO)c2ccccc2n1CCN1CCCCC1 | -0.81 |
| 42 | COC(=O)c1ccccc1NC(=O)c1ccc(N2CC3CC(C2)c2cccc(=O)n2C3)c(NC(=O)c2cccs2)c1 (stereo not drawn) | 0.39 |
| 43 | Oc1ccccc1C=Nc1nc2ccccc2n1Cc1ccc(Cl)cc1 | -0.17 |
| 44 | CC(=O)c1c(C)oc2c1c1c(c3ccccc32)OCN(C2CCS(=O)(=O)C2)C1 (stereo not drawn) | 3.5 |
| 45 | CC(=O)NC1=NN(C(C)=O)C(C)(c2ccccn2)S1 (stereo not drawn) | -0.13 |
| 46 | CCc1cccc(CC)c1NC(=O)c1[nH]c(C)c(C(C)=O)c1C | 0.98 |
| 47 | COc1ccccc1Oc1ccc(C(F)(F)F)cc1NC(=O)c1c(O)c2ccccc2[nH]c1=O | -1.9 |
| 48 | Oc1ccccc1-c1nc(Nc2cccc(C(F)(F)F)c2)c2ccccc2n1 | -0.78 |
| 49 | O=C(CCCCCN1C(=O)c2ccccc2C1=O)Nc1ccccc1F | 1.1 |
| 50 | COc1ccc(-n2nc3c(c2NC(=O)c2cc(OC)c(OC)c(OC)c2)CSC3)cc1 | -0.59 |

(cont.)
| nr | mol | Measles inh |
| --- | --- | --- |
| 51 | Cc1ccc(S(=O)(=O)NCCc2ccccc2)c2nsnc12 | -0.15 |
| 52 | Clc1ccc(-c2cn3c4ccccc4nc3n2CCNC2CCCCC2)cc1 | -2 |
| 53 | Cc1cc(C)c(C#N)c(Nc2ccc(Br)cc2)n1 | 0.54 |
| 54 | CCOC(=O)CSc1nc2c(c(=O)n1CC)C1(CCCCC1)Cc1ccccc1-2 | 0.14 |
| 55 | COC(=O)C1=C(C(=O)OC)SC(=C2C(=S)C(C)(C)N(C(=O)CN3C(=O)c4ccccc4C3=O)c3ccccc32)S1 | 1.9 |
| 56 | Cc1cc(C)c2nc(C)cc(Nc3ccc(N(C)C)cc3)c2c1 | -0.26 |
| 57 | O=C(CC(=O)Nc1nccs1)Nc1nccs1 | 2.9 |
| 58 | Cc1ccc(NS(=O)(=O)c2cnc[nH]2)cc1C | 0.02 |
| 59 | CC(=O)Oc1ccccc1C(=O)Nc1ccc(S(N)(=O)=O)cc1 | 1.1 |
| 60 | COc1ccc(Cl)cc1NC(=O)CCCn1nc([N+](=O)[O-])cc1C | -0.29 |
| 61 | COc1ccc(N2C(=O)CCC(C(=O)O)C2c2ccc(OC)c(OC)c2)cc1 (stereo not drawn) | -0.75 |
| 62 | Cn1nc(CC(=O)Nc2cccc(OC(=O)c3ccc(C(C)(C)C)cc3)c2)c2ccccc2c1=O | 1.9 |
| 63 | CC(=O)C1=C(C)Nc2ncnn2C1c1ccccc1F (stereo not drawn) | -0.99 |
| 64 | COc1ccccc1OCC(=O)Nc1nccs1 | -0.4 |
| 65 | COc1ccccc1NS(=O)(=O)c1cc(C(=O)c2ccc(Br)cc2)ccc1C | 3.5 |
| 66 | Cc1c(C(=O)NC2CCCCCCC2)oc2ccc(S(=O)(=O)N3CCCCC3)cc12 | -0.22 |
| 67 | CCSc1nc2c(c(=O)n1-c1ccc(F)cc1)SCC2 | -0.15 |
| 68 | C=CCOC(=O)C1=C(C)Nc2ncnn2C1c1cccnc1 (stereo not drawn) | 1.4 |
| 69 | COc1ccc(CC(=O)N2N=C(C)CC2(O)c2cccnc2)cc1 (stereo not drawn) | 0.05 |
| 70 | COc1cc(C(=O)Nc2ccc3nc(N4CCOCC4)cc(C)c3c2)ccc1Br | 0.11 |
| 71 | CCOC(=O)C1CCC(CN(CC(C)C)S(=O)(=O)c2ccc([N+](=O)[O-])cc2)CC1 (stereo not drawn) | 0.11 |
| 72 | O=C(NCc1ccc(F)cc1)c1noc2c1CCCCC2 | -1.2 |
| 73 | O=[N+]([O-])c1c(NCCCO)cc(Nc2ccc3c(c2)OCO3)c2nonc12 | 0.82 |
| 74 | O=C1CSC(c2cc3c(cc2[N+](=O)[O-])OCO3)N1c1ccc(Br)cc1 (stereo not drawn) | 0.51 |
| 75 | COc1ccc2nc3sc(C(=O)NC4CCCCCC4)cc3cc2c1 | 0.48 |
| 76 | O=c1c2ccccc2nc(SCc2ccncc2)n1Cc1ccco1 | -0.13 |
| 77 | O=C1Nc2ccccc2C1=NC1CCS(=O)(=O)C1 (stereo not drawn) | -0.42 |
| 78 | Cc1ccc(-c2c(C(=O)Nc3cccc(-n4c(C)ccc4C)c3)oc(=O)c3ccccc23)cc1 | -1 |
| 79 | COc1ccc(NC(=O)CN2CCN(CC(=O)Nc3ccc(F)cc3)CC2)cc1Cl | -0.64 |
| 80 | Nc1c(C(=O)NCC2CCCO2)sc(=S)n1-c1ccccc1 (stereo not drawn) | 0.73 |
| 81 | CCOc1cccc2cc(C(=O)Nc3nccs3)c(=Nc3ccc(OC)cc3)oc12 | -0.17 |
| 82 | CCOc1ccc(CC(=O)Nc2cccc(C(F)(F)F)c2)cc1OCC | -0.58 |
| 83 | COc1ccc(N2C(=O)CC(Sc3nnc(-c4ccccc4)o3)C2=O)cc1 (stereo not drawn) | -0.62 |
| 84 | O=C(OCCN1C(=O)c2cccc3c(N4CCOCC4)ccc(c23)C1=O)c1ccc(S(=O)(=O)N2CCOCC2)cc1 | -0.04 |
| 85 | CCOc1ccc(/C(O)=C2\C(=O)C(=O)N(CCO)C2c2ccc([N+](=O)[O-])cc2)cc1 (stereo not drawn) | 1.6 |
| 86 | O=C(CSCc1ccccc1F)NCc1ccc(F)cc1 | 0.35 |
| 87 | Cc1ccc(-c2nc3cnccn3c2Nc2ccc(C(C)C)cc2)cc1 | -0.88 |
| 88 | COc1ccccc1-c1ccc(C(=O)O)o1 | -0.71 |
| 89 | COc1ccccc1C(=O)Nc1ccc(-n2nncc2C23CC4CC(CC(C4)C2)C3)cc1 | 0.61 |
| 90 | CC(C)N1CCCC(C(=O)N2CCCCCC2)C1 (stereo not drawn) | -0.36 |
| 91 | O=C(CSc1nccn1-c1ccc(Cl)cc1)NC1CCCCC1 | -0.73 |
| 92 | COc1cc(C2Nc3ccc4ncccc4c3C3=C2C(=O)CCC3)ccc1O (stereo not drawn) | -0.24 |
| 93 | CS(=O)(=O)N1CCC(C(=O)NCCc2ccc(Cl)cc2)CC1 | -0.69 |
| 94 | NC(=O)c1c(NC(=O)CCCS(=O)(=O)c2nc(-c3cccs3)cc(C(F)(F)F)n2)sc2c1CCCC2 | -0.13 |
| 95 | C=CCNC(=O)c1ccc(Sc2ccc(C)cc2)c(NC(C)=O)c1 | 1.4 |
| 96 | CC(C)c1ccc(NC(=O)C2(S(=O)(=O)c3ccc(Cl)cc3)CC2)cc1 | 0.11 |
| 97 | Cc1ccc(-n2c(=O)c3ccccc3c3ccccc3c2=O)cc1F | -1.3 |
| 98 | O=S(=O)(c1ccc2nc(-c3ccccc3)[nH]c2c1)N1CCN(c2ccc(F)cc2)CC1 | -0.44 |
| 99 | CCc1ccc(S(=O)(=O)N2CCSC2c2ccccc2OC)cc1 (stereo not drawn) | 0.32 |
| 100 | CC1CCCCN1CCNC(=O)C1CCCN(S(=O)(=O)c2cccc3nsnc23)C1 (stereo not drawn) | -0.6 |

Next section.
| nr | mol | Measles inh |
| --- | --- | --- |
| 101 | Cc1ccc2c(c1Br)C(=Nc1ccc(Oc3ccccc3)cc1)C(=O)N2 | 0.09 |
| 102 | CCc1cc2c(=O)c(-c3nc(C)cs3)coc2cc1OC(C)C(=O)NCCO (stereo not drawn) | 1.4 |
| 103 | O=C(CCC(=O)N1CCNCC1)Nc1nc(-c2cc3ccccc3oc2=O)cs1 | -0.78 |
| 104 | CC(C)NC(=O)CN1C(=O)c2cccc3cccc1c23 | -0.49 |
| 105 | Cc1ccc([N+](=O)[O-])cc1N1COc2ccc3ccccc3c2C1 | 0.02 |
| 106 | CC1CCCCN1CCCNC(=O)C1CC(=O)N(C2CCCC2)C1 (stereo not drawn) | 1.1 |
| 107 | CC1(C)Cc2ccccc2-c2nnc(-c3cccs3)n21 | -0.83 |
| 108 | Cc1ccc(NC(=O)C(=O)NCCCO)cc1 | 0.47 |
| 109 | O=[N+]([O-])c1cc(Br)cnc1NCc1ccncc1 | 0.46 |
| 110 | CC(=O)Nc1ccc(S(=O)(=O)N(C)c2ccccc2)cc1 | -0.64 |
| 111 | CCn1cc(C(=O)O)c(=O)c2cc(F)c(N3CCN(S(=O)(=O)c4ccc(NC(C)=O)cc4)CC3)cc21 | -0.46 |
| 112 | O=S(=O)(c1ccccc1)n1cnc2ccccc21 | -0.17 |
| 113 | Cc1cc(C)cc(CC2C(=O)N(c3ccc(I)cc3)C(=O)C2C)c1 (stereo not drawn) | 1.2 |
| 114 | CCOc1ccc(-c2csc(-c3cc4cc([N+](=O)[O-])ccc4oc3=O)n2)cc1 | -0.14 |
| 115 | CCN(CC)S(=O)(=O)c1ccc(C(=O)N=c2sc3cc(C)ccc3n2C)cc1 | 3.6 |
| 116 | COc1ccc2cc3cc(C(=O)NCCN(C)C)oc3nc2c1 | -0.06 |
| 117 | COc1cccc(NC(=O)C2c3ccccc3C(=O)N(C)C2c2cccs2)c1 (stereo not drawn) | -1 |
| 118 | Cc1ccc2oc(-c3cccc(NC(=O)COc4ccc(C(C)C)cc4)c3)nc2c1 | -0.61 |
| 119 | CC1=C(C(=O)Nc2ccc(Cl)cc2)C(c2ccc(C(C)C)cc2)NC(=O)N1 (stereo not drawn) | 0.54 |
| 120 | COc1ccc(OC)c(C2NC(=O)NC(C)=C2C(=O)Nc2ccc(C)cc2C)c1 (stereo not drawn) | -1.2 |
| 121 | COc1ccc(N=Cc2cc(Cc3ccccc3Cl)ccc2O)cc1OC | -0.71 |

Screening results (PubChem BioAssay)

Some of the compounds tested, so the mix of outcomes need not match the whole.
